# gsp agonist: qHTS for Agonist of gsp, the Etiologic Mutation Responsible for Fibrous Dysplasia/McCune-Albright Syndrome: qHTS | gsp mutant cells, cAMP HTRF, 30 min; control for the full effect not named in the record | Potency, µM (series often up to 76.9 µM), inactives show at the top dose activation (cAMP increase), most hits filed as activators | hit rate 0.13% among 340,000 | AID 624287, 2012; active = well fitted activation curve with a large enough effect; inconclusive = small, poorly fitted or top-dose-only effect, or another doubt; inactive = no such curve, though single readings can be large or run the other way; cell line not stated here;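 further: phosphodiesterase inhibitor Ro 20-1724 added with compounds to block cAMP breakdown; potency means the concentration at half of the fitted maximal effect; nearly all actives have a fitted effect of over 60% in size; about a fifth of the inactives were tested at one dose only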
#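 Cells in DMEM/10% FBS with G418 were pretreated with compounds in DMSO plus […] (300 uM stock) for 30 min at 37C. cAMP was measured by HTRF (cAMP-d2 plus anti-cAMP antibody-K) after 30 min at room temperature.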
# D2 agonist: Beta-Arrestin HTS for Positive Allosteric Modulators of the Human D2 Dopamine Receptor: Agonists. D(2) dopamine receptor (Homo sapiens), P14416. DiscoveRx PathHunter D2 beta-arrestin, luminescence, 90 min; 100% = 57 uM dopamine signal. activation, % (concentration not given with the values). hit rate 0.084% among 360,000; in the data active = activation above about 40%; inconclusive = about 15% to 40%; inactive = below about 15%; further: compound concentration not given in the record; the text of the record calls up to 30% inactive
# Target sequence (P14416 whole entry, looked up): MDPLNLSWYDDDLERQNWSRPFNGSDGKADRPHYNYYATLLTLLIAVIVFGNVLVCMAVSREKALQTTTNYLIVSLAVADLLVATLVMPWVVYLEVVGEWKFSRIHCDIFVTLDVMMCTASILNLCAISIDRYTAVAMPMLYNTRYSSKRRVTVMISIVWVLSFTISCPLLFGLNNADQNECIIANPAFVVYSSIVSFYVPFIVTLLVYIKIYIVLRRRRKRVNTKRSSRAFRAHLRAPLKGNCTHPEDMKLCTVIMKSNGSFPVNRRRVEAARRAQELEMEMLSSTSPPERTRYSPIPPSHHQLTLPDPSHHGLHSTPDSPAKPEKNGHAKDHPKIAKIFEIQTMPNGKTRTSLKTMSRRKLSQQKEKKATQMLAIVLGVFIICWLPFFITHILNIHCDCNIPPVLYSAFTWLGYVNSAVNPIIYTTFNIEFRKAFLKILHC
#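 DiscoveRx PathHunter D2 beta-arrestin cells (2,100/well) attached overnight, then compound-stimulated 90 min at 37 C in HBSS/10 mM HEPES/0.1% Tween-20 buffer; beta-galactosidase complementation read by luminescence after 1 h at ambient temperature. Dopamine 57 uM final (EC100) as control.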
# Six1-Eya2 blk: qHTS Assay for Inhibitors of the Six1/Eya2 Interaction | Homeobox protein SIX1 (Homo sapiens) + Protein phosphatase EYA2 (Homo sapiens), … | AlphaScreen GST-Six1/His-Eya2 binding, biochemical; hits give low values; control for the full effect not named in the record | activity change, % (concentration not given with the values) | hit rate 0.56% among 360,000 | AID 651725, 2012; in the data active = activity change below about -65%; inconclusive = about -30% to -65%; inactive = above about -30%; further: on the % scale 0 is the no-effect control and ±100 the full control effect
#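 Homogeneous AlphaScreen proximity assay pairing GST-Six1 with His-tagged Eya2 (added as 5X mix: 250 nM and 500 nM) in 50 mM Tris pH 8.0, 300 mM NaCl, 1 mM TCEP. Glutathione donor and nickel acceptor beads; 1 h, 37 °C, dark.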
# CtBP-E1A blk: qHTS Assay for Inhibitors of the CtBP/E1A Interaction; AlphaScreen GST-E1A/His-CtBP binding, 1536-well; hits give low values; control for the full effect not named in the record; activity change, % (no concentration beside the values); hit rate 0.49% among 340,000; in the data active means activity change below about -65%; inconclusive means about -30% to -65%; inactive means above about -30%; further: on the % scale 0 is the no-effect control and ±100 the full control effect; compound concentration not given in the record
#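 AlphaScreen with 125 nM GST-E1A and 125 nM His-CtBP (5X stocks) in Tris pH 8.0, 300 mM NaCl, BSA, Tween 20, TCEP. Compounds preincubated 2 h at 37 deg C, then glutathione donor/nickel acceptor beads added for 1 h at 37 deg C in dark.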
# gsp antagonist: qHTS for Antagonists of gsp, the Etiologic Mutation Responsible for Fibrous Dysplasia/McCune-Albright Syndrome: qHTS; hit rate 0.4% among 340,000; Potency, µM (top dose mostly 76.9 µM), for inactives: at the top dose activity change, negative = inhibition, hits mostly inhibitors; gsp-mutant cells, cAMP HTRF, 30 min; control for the full effect not named in the record; active = falling curve of any shape with a large fitted effect; inconclusive = falling curve, mostly with a smaller effect; inactive = flat or rising curve; cell line not stated here;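 further: intracellular cAMP measured with PDE inhibitor Ro 20-1724 present during compound exposure; potency means the concentration at half of the fitted maximal effect; on the % scale 0 is the no-effect control and ±100 the full control effect; nearly all actives have a fitted effect of over 65% in size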
#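 Cells in G418 medium, seeded 16-24 h, 37C; buffer exchange to DPBS + 1 mM CaCl2, 0.5 mM MgCl2, 0.05% BSA; cpds in DMSO + […] (300 uM stock), 30 min 37C; HTRF cAMP detection.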
# D2 PAM: Beta-Arrestin HTS for Positive Allosteric Modulators of the Human D2 Dopamine Receptor: Potentiators; D(2) dopamine receptor (Homo sapiens), P14416; DiscoveRx D2 beta-arrestin cells, luminescence, 90 min; 100% = 57 uM dopamine signal; potentiation, % (no concentration beside the values); hit rate 0.23% among 360,000; AID 624464, 2012; active = potentiation of 50% or more; inconclusive = 30% to 50%; inactive = 30% or less;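 further: compound concentration not given in the record; tested on top of an EC20 dose of dopamine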
#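 D2 cells co-treated with compound plus 50 nM dopamine (EC20) for 90 min at 37 deg C to detect potentiation. Beta-arrestin recruitment was read as enzyme-fragment luminescence after 1 h at ambient temperature. Full response was set by 57 uM dopamine.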
# * hit, by the source's call; ? = inconclusive; . = no result given; [ ] = dose if it differs, or a comment.
SMILES,gsp agonist,D2 agonist,Six1-Eya2 blk,CtBP-E1A blk,gsp antagonist,D2 PAM
COc1ccc(CC(=O)NNS(=O)(=O)c2ccc(F)cc2)cc1OC,-2%,4.3,0,.,5%,?
CC(=O)Nc1ccc(NC(=O)CC2Nc3cccc4cccc(c34)NC2=O)cc1 (stereo not given),19%,1.4,-21,-14,-7%,-6
Cc1cc2c(cc1S(=O)(=O)CCC(=O)Nc1cccc(C(F)(F)F)c1)OCC(=O)N2,-16%,-10,1,-4,8%,-2
NC(N)=NS(=O)(=O)c1ccc(NC(=S)NC(=O)/C=C/c2cccs2)cc1,-15%[15.4 µM],-4.6,7,1,?,-2
CC12CCC(C(=O)OC3CCCCC3)(OC1=O)C2(C)C (stereo not given),?,-4.7,3,13,7%,-4
COc1ccc(C(=O)NCCSCc2ccccc2)cc1OC,18%,0.8,-5,6,6%,-15
O=C(Cc1cccs1)N1CCN=C1SCc1ccc(F)cc1,7%[15.4 µM],-0.4,9,3,-15%,4
O=C(CCSc1ccccc1Cl)Nc1cccc([N+](=O)[O-])c1,14%[15.4 µM],-1.2,4,-8,-16%,-7
CC(Sc1nc(N)cc(=O)[nH]1)C(=O)NCC(=O)Nc1ccc(F)c(F)c1F (stereo not given),-1%,6.1,1,-2,17%,0
COc1ccc(S(=O)(=O)NCc2c(-c3ccccc3)noc2C)c(OC)c1,-16%[15.4 µM],-3.7,1,6,20%,-6
CCC(C(=O)NNC(=O)c1cnccn1)c1ccccc1 (stereo not given),0%[15.4 µM],-2.5,-6,-9,14%,11
Cc1c(N2C(=O)c3ccccc3C2(O)c2ccccc2)c(=O)n(-c2ccccc2)n1C (stereo not given),-16%,-2.8,7,12,4%,4
COC(=O)c1c(NC(=O)COC(=O)CNC(=O)c2cccc(OC(F)F)c2)sc(C)c1C,-37%[inhibitor],-1.1,-3,3,.,-2
O=C(CCS(=O)(=O)c1cccc2nsnc12)NC1CCCCCC1,12%,-2.4,3,1,4%,7
O=C(NCc1ccccc1F)C1CCCN1C(=O)Nc1cccc(F)c1 (stereo not given),-22%,3.5,9,-4,8%,-8
O=C(NCCc1ccc(Cl)cc1)c1ccc(OCC2CCCO2)cc1 (stereo not given),-5%,4.4,0,4,1%,0
Cc1ccc(-c2nnn(CC(=O)N3CCN(c4nc5ccccc5s4)CC3)n2)cc1,-15%,-2.0,0,0,5%,0
CC=Cc1cc(OC)c2c(c1)C(C)C(c1ccc(O)c(OC)c1)O2 (stereo not given),-10%[15.4 µM],-2.1,-19,-12,-4%,-22
C#CCNC(=O)C1=C[C@@H](C)[C@H](CCCO)[C@@H](OCC)O1,7%,0.3,-8,4,13%,2
CCc1ccc2[nH]c(=O)c(CN(CCCO)C(=O)NCc3ccccc3)cc2c1,-5%,-1.7,2,5,-3%,5
O=C(CSc1nnc(-c2ccccc2)o1)OCc1ccccc1,21%,-0.6,18,7,-2%,3
O=C1CN(C(=O)c2cc([N+](=O)[O-])ccc2Cl)C(c2ccccc2)c2cc(F)ccc2N1 (stereo not given),-2%,0.5,1,-7,11%,22
Nc1nc(SCC(=O)Nc2c(Br)cc([N+](=O)[O-])cc2Br)n[nH]1,10%,?,2,.,2%,0
Cc1ccc(C(=O)N(CN2CCCC2=O)c2ccc(F)cc2)cc1,0%,-2.0,6,17,-4%,-4
Nc1ccc(C(=O)N2N=C(c3ccccc3)CC2(O)C(F)(F)F)cc1 (stereo not given),-20%,7.3,2,-6,5%,1
Cc1cccc(-n2cc(CN3CCN(C(=O)c4ncn[nH]4)CC3)c(-c3cccc(F)c3)n2)c1,-3%[15.4 µM],2.4,11,5,-3%,-8
CCCOc1ccc(-c2nnn(CC(=O)c3c[nH]c4ccccc34)n2)cc1,-6%,1.2,3,-8,-1%,11
CC(O)[C@H](NC(=O)C1CCN(C(=O)[C@H](Cc2ccccc2)NC(=O)OC(C)(C)C)CC1)C(=O)O (stereo not given in full),-17%,1.9,2,3,4%,-4
CC(C)(C)S(=O)N1Cc2cc(C(=O)N3CCc4ccccc4C3)nc(-c3cccc(-c4ccncc4)c3)c2[C@H]1CCO (stereo not given in full),.,-3.7,-8,0,.,-4
Cc1ccc(OCC(=O)N2N=C(c3ccc(Cl)cc3)CC2c2ccco2)c([N+](=O)[O-])n1 (stereo not given),-6%[15.4 µM],-4.9,-16,0,-6%,-9
O=C1c2ccccc2S(=O)(=O)N1Cc1nc2ccccc2s1,28%,-6.5,2,1,-14%,-6
CC(=O)c1ccc(NC(=O)c2cnn3c(C(F)F)cc(C4CC4)nc23)cc1,10%,0.3,2,-4,-3%,-11
Cc1c(C)n(C(=O)CSc2ncn[nH]2)c2ccccc12,1%,-1.0,-3,-1,-8%,-3
COc1cccc(N2CCN(CC(=O)C34CC5CC(CC(C5)C3)C4)CC2)c1,-20%,0.8,0,5,12%,-4
CCOC(=O)N1CCC(N2C(=O)c3ccccc3C2Nc2cc(OC)c(OC)c(OC)c2)CC1 (stereo not given),-24%,6.8,3,2,-12%,-3
O=S(=O)(N/N=C/c1cn(Cc2ccccc2)c2ccccc12)c1ccccc1,4%,2.9,-2,-20,-8%,-14
N#Cc1ccc(-c2c(-c3ccccc3)ncc3cc(F)ccc23)cc1,.,-2.0,8,14,-36%,-9
CC1CCc2c(sc(NC(=O)CCCn3cnc([N+](=O)[O-])n3)c2C(N)=O)C1 (stereo not given),10%,-0.3,-9,-1,6%,11
CC(C)CC(=O)Nc1ccc(C(=O)COC(=O)CN2C(=O)NC3(CCCCC3C)C2=O)cc1 (stereo not given),-9%,-2.5,1,-1,-4%,-23
CCOC(=O)C1CCCN(C(=O)CCn2nc(-c3ccccc3)ccc2=O)C1 (stereo not given),-70%[inhibitor],-4.3,-2,-5,-3%,-25

# Pulled one by one from the entries so far (6):
SMILES,gsp agonist,D2 agonist,Six1-Eya2 blk,CtBP-E1A blk,gsp antagonist,D2 PAM
Cc1ccc(OCC(=O)N2N=C(c3ccc(Cl)cc3)CC2c2ccco2)c([N+](=O)[O-])n1 (stereo not given),-6%[15.4 µM],-4.9,-16,0,-6%,-9
N#Cc1ccc(-c2c(-c3ccccc3)ncc3cc(F)ccc23)cc1,.,-2.0,8,14,-36%,-9
COc1cccc(N2CCN(CC(=O)C34CC5CC(CC(C5)C3)C4)CC2)c1,-20%,0.8,0,5,12%,-4
O=C1c2ccccc2S(=O)(=O)N1Cc1nc2ccccc2s1,28%,-6.5,2,1,-14%,-6
CCOC(=O)C1CCCN(C(=O)CCn2nc(-c3ccccc3)ccc2=O)C1 (stereo not given),-70%[inhibitor],-4.3,-2,-5,-3%,-25
Nc1ccc(C(=O)N2N=C(c3ccccc3)CC2(O)C(F)(F)F)cc1 (stereo not given),-20%,7.3,2,-6,5%,1

# Further results
SMILES,gsp agonist,D2 agonist,Six1-Eya2 blk,CtBP-E1A blk,gsp antagonist,D2 PAM
CCN(Cc1nc2ccccc2c(=O)[nH]1)C(=O)c1cc(C2CC2)nn1-c1ccccc1,22%,3.4,-4,6,-15%,4
O=c1c(-c2cccc3ccccc23)[n+]([O-])c2ccccc2n1O,9%,-0.8,0,-1,-5%,16
CC(OC(=O)C1CC1)C(=O)Nc1cc(C(F)(F)F)ccc1Cl (stereo not given),-9%[15.4 µM],-0.6,7,0,6%,1
Cc1cccn2c(=O)c3cc(C(=O)NCc4ccccc4)c(=N)n(CCCN4CCOCC4)c3nc12,?,-0.4,14,-8,-8%,-12
COc1ccc(C(c2nnnn2Cc2ccccc2)N2CCN(C(=O)c3ccco3)CC2)cc1 (stereo not given),-15%,-1.7,0,-17,-11%,-2
CC(NC(=O)CN1C(=O)NC2(CCc3ccccc32)C1=O)c1ccccc1 (stereo not given),-25%,2.5,-2,-2,-3%,-1
CC1CCN(C(=O)COC(=O)c2ccccc2C(=O)c2ccccc2)CC1,15%[15.4 µM],-0.6,0,11,-13%,-4
Cc1nn(-c2cccc(Cl)c2)nc1C(=O)O,-16%[15.4 µM],-3.4,-15,-9,-10%,-1
c1ccc2nc(-c3ccncc3)ccc2c1,-22%,-0.6,-1,1,6%,-21
CC(C)CN(C(=O)COC(=O)C(C)N1C(=O)c2ccccc2C1=O)c1c(N)n(Cc2ccccc2)c(=O)[nH]c1=O (stereo not given),-20%,-3.5,-5,5,12%,-2
CCOc1ccc(N(CC(=O)N2CCCC2)S(=O)(=O)c2ccc(F)cc2)cc1,-18%,-1.9,12,1,4%,2
c1ccc(-c2nnc(CN3CCN(c4ccccc4)CC3)o2)cc1,0%,3.0,-2,4,3%,-9
COc1cc(CN2CCC(C(=O)N3CCC(C)CC3)CC2)cc(Br)c1O,16%,-4.5,0,2,-1%,-18
O=C(Nc1cc([N+](=O)[O-])ccc1C(=O)Nc1cccnc1)c1ccccc1,1%,2.5,-5,2,-13%,?
COc1ccc(C2(C(=O)N3CCCC3)CCOCC2)cc1OC,-12%,1.8,1,10,1%,-11
O=C(NCCN1CCCCC1)c1ccc(F)cc1Cl,-22%,-6.8,3,-5,13%,-6
CCN(CC(=O)Nc1cc(Cl)ccc1C)C(=O)c1cc(S(=O)(=O)N2CCCCCC2)ccc1OC,-7%,-3.3,-7,-4,-20%,-12
CCN(CC)CC#CCC1(O)c2ccccc2-c2ccccc21,-2%,0.3,-2,-19,-4%,-7
COc1cc(/C=C(/C#N)c2ccccc2)ccc1Oc1ccc([N+](=O)[O-])cn1,?,-0.9,-21,-26,-8%,11
CCCCC(CC)C(=O)NCc1ccccc1OC (stereo not given),?,-3.4,3,5,-13%,-6
COc1ccc(/C=C(\NC(=O)c2ccc(C)cc2)C(=O)NCCCn2ccnc2)cc1,-22%,1.5,-4,-5,13%,-5
Cc1ccc2nc(-c3ccc(SCC(=O)Nc4nnc(C)s4)nc3)[nH]c2c1,-25%[15.4 µM],4.1,-20,-2,29%,13
CCCCOc1ccc(/C=C/C2=CC(C)(C)NC(=S)N2)cc1OCC,-3%,-7.2,-10,-20,-1%,6
O=C(CSc1cc(Cl)ccc1Cl)NC1CCCc2ccccc21 (stereo not given),-40%[inhibitor],5.8,5,.,4%,-8
Cc1ncsc1C(=O)O,16%[15.4 µM],-4.3,10,3,-17%,-7

# Assay outcomes: PubChem BioAssay, National Center for Advancing Translational Sciences (NCATS)
